# RecA intein inh = Mtb RecA intein splicing inhibition. cell-free RecA intein splicing, fluorescence. inhibition, %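 (about 9 µM by stock and volumes)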. P9WHJ3. actives 0.75% (n = 290,000); in the data active means inhibition above about 30%; inconclusive means no clear call, values can overlap the other calls;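 further: 0% = vehicle wells and 100% = reference inhibitor control wells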
# Target sequence (P9WHJ3 whole entry, looked up): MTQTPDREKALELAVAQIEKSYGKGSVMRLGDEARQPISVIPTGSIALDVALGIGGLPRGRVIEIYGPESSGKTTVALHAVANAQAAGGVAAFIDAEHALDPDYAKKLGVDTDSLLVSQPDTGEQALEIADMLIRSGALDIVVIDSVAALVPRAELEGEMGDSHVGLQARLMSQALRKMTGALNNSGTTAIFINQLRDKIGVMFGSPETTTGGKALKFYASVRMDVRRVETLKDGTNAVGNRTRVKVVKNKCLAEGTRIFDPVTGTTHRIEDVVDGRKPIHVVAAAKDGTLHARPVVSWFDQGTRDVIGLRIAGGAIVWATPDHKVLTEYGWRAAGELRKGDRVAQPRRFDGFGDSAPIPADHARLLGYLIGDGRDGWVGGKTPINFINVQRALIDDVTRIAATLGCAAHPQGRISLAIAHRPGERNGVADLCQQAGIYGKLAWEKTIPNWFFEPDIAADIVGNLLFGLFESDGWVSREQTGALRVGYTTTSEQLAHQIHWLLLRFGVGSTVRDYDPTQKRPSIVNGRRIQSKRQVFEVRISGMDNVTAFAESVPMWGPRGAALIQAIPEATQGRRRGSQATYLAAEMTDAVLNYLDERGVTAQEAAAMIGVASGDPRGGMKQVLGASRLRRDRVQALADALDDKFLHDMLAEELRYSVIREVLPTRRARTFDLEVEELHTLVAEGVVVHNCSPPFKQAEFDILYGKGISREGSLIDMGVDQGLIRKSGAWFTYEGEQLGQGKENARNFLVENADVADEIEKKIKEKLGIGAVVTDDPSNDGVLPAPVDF
# Mtb H37Rv = M. tuberculosis H37Rv growth inhibitors, H37Rv strain (AID 1626); M. tuberculosis H37Rv growth inhibition; higher % means a stronger effect; inhibition, % at 10 µM; hits with a dose series show IC50 in µM; actives 0.95% (n = 220,000);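 active means confirmed in a dose series; inconclusive means inhibition above 80% but not taken into the dose series; inactive means below 80% or under 30% at every dose of the series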;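 further: bacteria incubated seven days before Alamar blue readout; 0% = bacteria only wells and 100% = bacteria with antibiotic wells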
# Mtb betalactam = beta-lactam sensitization of Mtb H37Rv. actives 0.27% (n = 330,000). inhibition, % at 25 µM. AID 434955. M. tuberculosis H37Rv growth with meropenem, percent inhibition; hits of this screen are not shown here;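 active means about 74% or more and at least 40 points above the plate without the antibiotic, then above 30% in a dose series; inconclusive means first-round hits that could not be retested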;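 further: growth measured after seven days incubation then overnight dye step; 0% = bacteria only wells and 100% = bacteria with antibiotic; twin plates without the antibiotic show which effects depend on it; some results filed as inactive read as strong as hits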
# YopH inh = YopH (Yersinia) phosphatase inhibition; inhibition, %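 (about 10 µM by stock and volumes)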; actives 0.16% (n = 140,000); fluorescence Ex485/Em525; AID 898;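 active means inhibition of 50% or more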;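 further: controls were vehicle for no effect and minimum signal wells for full effect; inactives centre near -20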
# Arbovirus inh = arbovirus infection inhibition; inhibition, % at 10 µM; AID 1251; arbovirus infection cell-based antiviral screen; actives 0.37% (n = 200,000);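 active means inhibition from about 30%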;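 further: bluetongue infection of BSR cells; cell survival read as ATP light after 72 h; 0% = infected wells without compound and 100% = uninfected wells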
# Arbovirus inh repeat = recorded beside Arbovirus inh, whose call it bears; inhibition, %; measured here: 10K subset replicate screen; many hits read low in the repeat;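 first of two repeat runs on a subset; 0% = infected and 100% = uninfected wells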
# * = called active by the depositor; ? = inconclusive; . = not tested or not shown.
SMILES,RecA intein inh,Mtb H37Rv,Mtb betalactam,YopH inh,Arbovirus inh,others
O=C(c1cc2ccccc2cc1O)N1CCN(c2ccc([N+](=O)[O-])cc2)CC1,1.5,.,-2.4,.,.,
COc1ccc(CNC(=O)Cc2cccs2)cc1OC,3.9,.,-0.5,.,.,
CCOc1ccc(/C=N/OCC(=O)NCc2ccco2)cc1,-0.6,-4.2%,21.4,.,6.2,
CC(=O)Nc1cccc(NC(=O)Cc2cccs2)c1,0.0,.,-7.2,.,.,
CC(C)(C)CC(C)(C)Nc1c(-c2ccc(O)cc2)nc2cnccn12,2.6,4.8%,-15.3,0.1,.,
Cc1cc(C)n2c(Br)c(CSc3nc4ccccc4o3)nc2n1,3.0,-7.9%,-1.9,-39.6,11.7,
O=C(CCCn1nnc2ccccc2c1=O)N[C@H](C(=O)O)c1ccccc1,2.2,-7.5%,8.4,.,.,
Cc1ccc(C(=O)N2CC(=O)Nc3ccc(F)cc3C2c2ccc(F)cc2)cc1[N+](=O)[O-] (centres undefined),-2.7,8.8%,-2.2,-4.0,1.1,
COC(=O)c1ccc(NC(=O)CN2C(=O)C3C4C=CC(C4)C3C2=O)cc1 (centres undefined),0.2,1.4%,-2.0,-21.7,4.0,
COc1cc(Br)cc(CNc2ccc(F)c([N+](=O)[O-])c2)c1O,2.1,6.2%,0.1,.,-10.5,
O=C(CCC1N=C2c3ccccc3N=C(SCC(=O)NCc3ccco3)N2C1=O)NCc1ccco1 (centres undefined),1.8,-7.7%,-8.9,.,2.5,
CC(Oc1ccccc1F)C(=O)NNC(=O)C1CC(=O)N(c2ccc3c(c2)OCCO3)C1 (centres undefined),0.1,.,-2.7,.,.,
CCOC(=O)c1nnn(-c2nonc2-c2ccccc2)c1C,-3.9,4.5%,-2.9,-28.9,14.8,
COC(=O)c1ccc(COC(=O)c2cnc(Cl)c(Cl)c2)cc1,5.6,.,96.0,.,.,
Cc1ccc(S(=O)(=O)N2CCN(C(=O)c3cccc(-n4cccc4)c3)CC2)cc1,9.4,.,-14.3,.,.,
COc1ccc(/C=N/NC(=O)CCn2cnc(-c3ccccc3)c2-c2ccccc2)cc1OC,5.1,18.6%,-16.5,-4.7,2.1,
CC(C)c1ccccc1OCC(=O)N1CCCN(C)CC1,-2.8,.,9.3,.,.,
Oc1cccc(C(=S)N2CCCCC2)c1,2.3,2.3%,-0.2,.,-3.0,
COc1ccc(C(=O)Cn2nnc(-c3ccc(N4CCOCC4)cc3)n2)cc1OC,-0.3,-1.8%,-2.9,-11.0,-10.3,
COc1cc(SC)ccc1C(=O)NC1CCCCC1,-1.1,3.4%,26.3,-17.7,-7.9,
NC(=O)N=Nc1c2[nH]c3ccccc3nc-2c2ccccc12,-0.5,?,99.0,.,.,
CS(=O)(=O)c1ccc(CNC(=O)C2(C(F)(F)F)C/C(=C\Cc3ccccc3)CCCO2)cc1 (centres undefined),3.3,-3.6%,0.1,.,.,
CCCCNC(=O)CCSc1ccc(C)cc1,-0.6,8.2%,8.6,-8.9,-6.2,
COc1ccc(-n2nc(C(=O)NCC(=O)N3CCCCCC3)c3ccccc3c2=O)c(OC)c1,-1.3,.,3.1,.,.,
COC(=O)CSc1nc(SCc2ccc(C)cc2)nc2c1CCCC2,12.6,-2.9%,1.2,-28.1,6.9,

# Continued:
SMILES,RecA intein inh,Mtb H37Rv,Mtb betalactam,YopH inh,Arbovirus inh,others
CCOC(=O)Cc1csc(NS(=O)(=O)c2ccc(Cl)cc2)n1,-1.6,-7.1%,3.2,-14.8,6.2,
Cc1cc(C)nc(SCC(=O)Nc2ncc(C(F)(F)F)cc2Cl)n1,-1.4,-3.0%,1.5,-21.8,-0.4,
Cc1ccnc(NC(c2cccnc2)c2ccc3cccnc3c2O)c1 (centres undefined),12.1,-3.6%,0.8,.,-18.0,
Cc1cc(NC(=O)c2ccccc2Cl)n(C(C)(C)C)n1,1.5,-13.5%,0.3,.,.,
Cc1ccc(NC(=O)Cn2nnc(C(=O)NCc3ccc4c(c3)OCO4)c2N)cc1,-0.6,.,7.0,.,.,
COc1cc(NC(=O)CSc2ccc(-c3ccco3)nn2)cc(OC)c1,0.3,.,-20.0,.,.,
CCn1c(C)nc2cc(S(=O)(=O)C(F)(F)F)ccc21,1.3,-3.6%,-12.4,-6.3,2.1,
CC(=O)Nc1ccc(Oc2ccc(-c3noc(C)n3)cc2)cc1,1.6,-7.3%,-9.1,0.1,-1.4,
COC(=O)C1=C(C(=O)OC)[C@@H]2N(Cc3ccccc3)c3ccccc3[C@@]23C[C@@H](C(=O)OC)N(C(=O)c2cccs2)C3=N1,3.7,-2.5%,-6.4,.,.,
COc1cc(/C=N/O)cc(Br)c1OS(=O)(=O)c1ccc(C)cc1,-2.2,15.5%,-4.7,-29.6,-36.6,
Cc1ccc(CNC(=O)CSc2nc3n[nH]c(C)c3c(=N)n2-c2cccc(C)c2)cc1,-0.8,-2.1%,-5.0,-19.0,-34.4,
CN(CC(=O)Nc1n[nH]c(=S)s1)S(=O)(=O)c1cccc2cccnc12,-3.2,.,-4.2,.,.,
C#CCOCCOCCOCCNc1nc(N2CCN(C(=O)[C@H](CCC(=O)O)n3cc(C(N)CO)nn3)CC2)nc(N2CCN(C(=O)[C@H](CCCCN)n3cc(C(N)CC(C)C)nn3)CC2)n1 (some centres undefined),-0.3,-6.2%,.,.,.,
CCCn1c(SCC(=O)N2CCc3ccccc32)nnc1-c1ccncc1,-0.3,-0.3%,.,-32.4,-2.1,
O=C1NC(=S)/C(=C\c2ccc(-c3ccccc3Cl)o2)S1,1.3,32.3%,79.1,-22.2,-7.8,
COCc1ccc(CN2CCCC(C(=O)c3sccc3C)C2)o1 (centres undefined),-1.0,-2.2%,-0.4,.,1.8,
COc1ccc(C(=O)N2CCC(n3nnc4cc(F)ccc43)CC2)cc1OC,-2.5,-1.0%,3.9,.,8.4,
Cc1ccc(Oc2ncccc2N)c2c1CCC2,5.1,3.7%,4.4,.,.,
COCCNC(=O)C(c1ccc(O)cc1)N(Cc1ccco1)C(=O)CCC(=O)Nc1ccccn1 (centres undefined),0.3,.,-5.8,.,.,
CNC(=O)/C(C#N)=C/c1c(N(Cc2ccccc2)Cc2ccccc2)nc2c(C)cccn2c1=O,31.0*,3.0%,-2.1,-15.6,-38.1,
CCc1ccccc1NC(=O)c1cccc(Oc2ccc([N+](=O)[O-])cc2Cl)c1,8.6,8.5%,-13.7,-3.4,-1.1,
CCOC(=O)C1(Cc2ccccc2C)CCCN(C(=O)CN2C(=O)CSC2=O)C1 (centres undefined),2.9,.,2.2,.,.,
CCC(C)NC(=O)CSc1nc2ccc(N3CCOCC3)cc2c(=O)n1CCc1ccccc1 (centres undefined),-3.3,.,17.7,-36.9,8.6,
Cc1ccc2[nH]c(C(=O)N3CCCCC3)cc2c1,-0.6,.,6.0,.,.,
CC(=O)C1(C)N(O)C(C)(C)C(c2ccco2)=[N+]1[O-] (centres undefined),0.8,-9.8%,2.1,-5.7,19.0,

# Structures from the list above containing a tert-butyl group, in the order listed:
SMILES,RecA intein inh,Mtb H37Rv,Mtb betalactam,YopH inh,Arbovirus inh,others
CC(C)(C)CC(C)(C)Nc1c(-c2ccc(O)cc2)nc2cnccn12,2.6,4.8%,-15.3,0.1,.,
Cc1cc(NC(=O)c2ccccc2Cl)n(C(C)(C)C)n1,1.5,-13.5%,0.3,.,.,

# The list goes on:
SMILES,RecA intein inh,Mtb H37Rv,Mtb betalactam,YopH inh,Arbovirus inh,others
CC(=O)c1ccc(NC(=O)CCc2nnc3ccc(N4CCC5(CC4)OCCO5)nn23)cc1,-2.7,.,2.0,.,.,
COc1ccc(CNC(=O)Nc2cccc(C(F)(F)F)c2)cc1OC,2.1,-0.8%,-9.8,-26.9,-7.9,
COc1cc(OC)cc(C(=O)Nc2nnc(NC(=S)Nc3ccccc3)s2)c1,2.5,8.3%,3.1,-15.4,-12.4,
COc1ccc(/C=N/Nc2nc(C)cc(-c3ccccc3)n2)c(OC)c1,-4.9,.,-3.9,.,.,
CC(C)=C1C2CCC1C(C(=O)Nc1sc(C)c(-c3ccc(C(C)C)cc3)c1C(N)=O)C2C(=O)O (centres undefined),12.4,7.9%,8.4,12.6,-2.3,
O=C(NCC1CCCO1)/C(=C\c1ccccc1)NC(=O)c1ccccc1 (centres undefined),0.2,-2.3%,-3.8,.,0.6,
COc1ccc(CC(=O)Nc2ccc(S(=O)(=O)N(C)C)cc2)cc1OC,-1.8,-2.2%,-4.6,-40.0,2.6,
COc1ccc(-c2cc(-c3ccccc3)c(C#N)c(SCC(=O)Nc3ncc(C)s3)n2)cc1,2.5,-1.0%,28.4,-21.0,-4.3,
Cc1cc(N/N=C/c2ccc(O)cc2O)nc(-n2nc(C)cc2C)n1,-5.9,?,99.5,-26.2,-19.4,
O=C(Nc1ccc(C(=O)N2CCCC2)cc1)c1ccccc1[N+](=O)[O-],-1.6,4.7%,-12.0,.,2.8,
COc1ccc(NC(=O)CSC2CCCCC2)cc1,.,51.3%,96.1,10.1,-0.3,
O=C(O)CCC(=O)Nc1ccc(Sc2ccc([N+](=O)[O-])cc2)cc1,2.4,-3.8%,9.7,-34.5,15.3,
CCc1nnc(NC(=O)c2sc3nc(C)cc(COC)c3c2N)s1,-10.3,-4.7%,1.6,.,-4.1,
Cc1ccc(-c2csc3nc4c5ccccc5c(NCCCN5CCOCC5)nn4c(=O)c23)cc1,-12.5,?,100.1,.,-29.8,
CC(C)CCSc1nc2c(c(=O)[nH]c(=O)n2C)n1CCCc1ccccc1,3.2,17.8%,10.2,-5.9,-0.6,Arbovirus inh repeat=-14.6
OCCC1CN(CCCc2ccccc2)CCN1Cc1ccc(F)cc1 (centres undefined),1.1,.,3.7,.,.,
COC(=O)c1ccc(CSc2nnc(C)s2)cc1,-0.8,-1.4%,29.1,-14.8,9.8,
Cn1c(=S)ccc2ccccc21,0.5,6.7%,-2.3,.,12.8,
Cc1cc2nc(C(F)(F)F)cc(-c3cccs3)n2n1,-0.5,1.7%,-4.1,.,0.8,
CS(=O)(=O)N(CC(=O)NCC1CCCO1)c1ccc(Cl)c(Cl)c1 (centres undefined),-2.1,3.9%,25.2,-13.1,6.4,
Cc1cccc(NC(=S)NC23CN4CN(CN(C4)C2)C3)c1C,0.2,29.1%,0.0,.,1.4,
CC(NS(=O)(=O)c1ccccc1)C(c1cccs1)N1CCN(C)CC1 (centres undefined),-0.6,-6.8%,2.6,19.5,3.3,
O=C(Cc1n[nH]c(=O)c2ccccc12)OCC(=O)c1ccc(F)c(F)c1,-0.1,.,-1.0,.,.,
Cc1cnc(C(=O)Nc2nnc(C)s2)cn1,0.7,-5.8%,-0.5,-38.1,3.6,
COC(=O)C1=C(C)N(c2ccc(Br)cc2)C(=O)/C1=C\c1ccco1,-0.1,3.4%,-0.3,-7.7,5.0,

# Filtered by structure: those above with bromine.
SMILES,RecA intein inh,Mtb H37Rv,Mtb betalactam,YopH inh,Arbovirus inh,others
Cc1cc(C)n2c(Br)c(CSc3nc4ccccc4o3)nc2n1,3.0,-7.9%,-1.9,-39.6,11.7,
COc1cc(Br)cc(CNc2ccc(F)c([N+](=O)[O-])c2)c1O,2.1,6.2%,0.1,.,-10.5,
COc1cc(/C=N/O)cc(Br)c1OS(=O)(=O)c1ccc(C)cc1,-2.2,15.5%,-4.7,-29.6,-36.6,
COC(=O)C1=C(C)N(c2ccc(Br)cc2)C(=O)/C1=C\c1ccco1,-0.1,3.4%,-0.3,-7.7,5.0,

# In the list so far, 6 contain an NH in an aromatic ring:
SMILES,RecA intein inh,Mtb H37Rv,Mtb betalactam,YopH inh,Arbovirus inh,others
NC(=O)N=Nc1c2[nH]c3ccccc3nc-2c2ccccc12,-0.5,?,99.0,.,.,
Cc1ccc(CNC(=O)CSc2nc3n[nH]c(C)c3c(=N)n2-c2cccc(C)c2)cc1,-0.8,-2.1%,-5.0,-19.0,-34.4,
CN(CC(=O)Nc1n[nH]c(=S)s1)S(=O)(=O)c1cccc2cccnc12,-3.2,.,-4.2,.,.,
Cc1ccc2[nH]c(C(=O)N3CCCCC3)cc2c1,-0.6,.,6.0,.,.,
CC(C)CCSc1nc2c(c(=O)[nH]c(=O)n2C)n1CCCc1ccccc1,3.2,17.8%,10.2,-5.9,-0.6,Arbovirus inh repeat=-14.6
O=C(Cc1n[nH]c(=O)c2ccccc12)OCC(=O)c1ccc(F)c(F)c1,-0.1,.,-1.0,.,.,

# Screens deposited in PubChem by several laboratories.

# Some of the compounds tested; the hit share may differ from the screen's.
